Arbovirus inh – antivirals against arbovirus infection, primary screen, cell-based, full library, 10K replicate subset. inhibition, % at 10 µM. 200,000 tested, 0.37% active. AID 1251, 2008. arbovirus infection cell-based antiviral screen;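 active = inhibition from about 30%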;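 also: bluetongue infection of BSR cells; cell survival read as ATP light after 72 h; 0% = infected wells without compound and 100% = uninfected wells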
RecA intein inh – Mtb RecA intein splicing inhibitors, primary screen, biochemical, fluorescence, HTS. Protein RecA (Mycobacterium tuberculosis (strain ATCC 25618 / H37Rv)), P9WHJ3. cell-free RecA intein splicing. inhibition, %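 (about 9 µM by stock and volumes)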. 290,000 tested, 0.75% active. AID 2221, 2009; in the data active = inhibition above about 30%;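 also: 0% = vehicle wells and 100% = reference inhibitor control wells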
Target sequence (P9WHJ3 whole entry, looked up): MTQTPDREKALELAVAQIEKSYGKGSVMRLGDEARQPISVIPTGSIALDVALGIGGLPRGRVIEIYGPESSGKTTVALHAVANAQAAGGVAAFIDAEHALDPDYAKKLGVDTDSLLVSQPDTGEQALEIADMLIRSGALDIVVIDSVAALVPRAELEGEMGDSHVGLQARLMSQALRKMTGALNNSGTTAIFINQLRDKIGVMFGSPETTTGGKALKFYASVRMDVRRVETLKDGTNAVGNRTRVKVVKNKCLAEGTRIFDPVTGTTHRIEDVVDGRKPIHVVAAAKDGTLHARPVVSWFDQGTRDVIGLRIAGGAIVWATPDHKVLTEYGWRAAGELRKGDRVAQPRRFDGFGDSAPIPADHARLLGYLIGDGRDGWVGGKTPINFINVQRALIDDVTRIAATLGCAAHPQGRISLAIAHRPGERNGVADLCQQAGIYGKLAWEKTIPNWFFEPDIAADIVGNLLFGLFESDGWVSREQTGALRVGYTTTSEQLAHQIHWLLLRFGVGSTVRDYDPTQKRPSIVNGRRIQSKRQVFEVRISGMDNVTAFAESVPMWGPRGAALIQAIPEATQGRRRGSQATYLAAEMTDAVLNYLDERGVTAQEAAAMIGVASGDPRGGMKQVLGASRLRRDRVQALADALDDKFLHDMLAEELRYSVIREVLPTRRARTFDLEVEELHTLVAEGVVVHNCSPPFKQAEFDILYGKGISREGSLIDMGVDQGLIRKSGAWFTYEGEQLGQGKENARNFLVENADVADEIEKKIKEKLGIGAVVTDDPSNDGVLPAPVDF
Mtb bLac sens – beta-lactam sensitization of Mtb H37Rv, H37Rv; M. tuberculosis H37Rv growth with meropenem, percent inhibition; hits of this screen are not shown here; inhibition, % at 25 µM; 330,000 tested, 0.27% active;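 active = about 74% or more and at least 40 points above the plate without the antibiotic, then above 30% in a dose series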;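 also: growth measured after seven days incubation then overnight dye step; 0% = bacteria only wells and 100% = bacteria with antibiotic; twin plates without the antibiotic show which effects depend on it; some results filed as inactive read as strong as hits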
YopH PTP inh – YopH tyrosine phosphatase inhibitors, primary screen, biochemical, fluorescence Ex485/Em525. inhibition, %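 (about 10 µM by stock and volumes)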. 140,000 tested, 0.16% active. AID 898, 2007;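 active = inhibition of 50% or more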;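 also: controls were vehicle for no effect and minimum signal wells for full effect; inactives centre near -20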
Mtb H37Rv – M. tuberculosis H37Rv growth inhibitors, H37Rv strain (AID 1626). M. tuberculosis H37Rv growth inhibition; higher % means a stronger effect. one-dose inhibition, % at 10 µM; IC50 in µM for titrated hits. 220,000 tested, 0.95% active;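 active = confirmed in a dose series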;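 also: bacteria incubated seven days before Alamar blue readout; 0% = bacteria only wells and 100% = bacteria with antibiotic wells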
Arbovirus inh repeat – recorded beside Arbovirus inh, whose call it bears; inhibition, %; measured here: 10K subset replicate screen; many hits read low in the repeat;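 first of two repeat runs on a subset; 0% = infected and 100% = uninfected wells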
* = called active by the depositor; . = no result given.

SMILES	Arbovirus inh	RecA intein inh	Mtb bLac sens	YopH PTP inh	Mtb H37Rv	others
CCCc1cc(=O)oc2cc(OCC(=O)N3CCN(Cc4ccc5c(c4)OCO5)CC3)ccc12	.	2.1	-9	.	.
COc1cc(NC(=O)COC(=O)CO/N=C(\C)c2ccc3c(c2)OCO3)cc(OC)c1OC	.	-1.0	-4	.	.
CCN(Cc1ccncc1)C(=O)CCc1ccccc1	.	-0.2	1	.	.
Cc1cccc(OC2CCN(Cc3nc(CC4CC4)no3)CC2)c1	11	0.4	-2	.	-2%
COc1cccc(CN2CCNC(=O)C2CC(=O)N(C)Cc2cnccn2)c1OC (stereo not given)	-1	1.8	-9	.	1%
CCCCNC(=O)c1cn(-c2ccc(OCC)cc2)c(=O)c2cc(OC)c(OC)cc12	-15	5.9	-8	-13	-11%
COC(=O)CN(c1ccc2c(c1)OCO2)S(C)(=O)=O	1	0.7	-6	-23	-13%
Cc1ccc(NS(=O)(=O)c2ccc3c(c2)NC(=O)CCS3)c(Cl)c1	.	0.6	1	.	.
O=C(O)CN1C(=O)NC2NC(=O)NC21 (stereo not given)	12	0.1	-4	-20	-15%
O=C(NC1=NCCS1)c1ccc([N+](=O)[O-])cc1Cl	1	-1.6	-9	.	-3%
Cc1nc(C)c(-c2nnc(-c3ccc(C(C)(C)C)cc3)o2)cc1C(=O)NN	-20	-0.2	1	-20	-2%
Cc1cc(C)cc(OCC(=O)OC(C)C(=O)Nc2c(C)n(C)n(-c3ccccc3)c2=O)c1 (stereo not given)	.	-0.9	-1	.	.
Cc1ccc(-n2cc(CN(C)CCc3cn[nH]c3)c(-c3cccc(C)c3)n2)cc1	-23	3.3	36	.	7%
CN(C(=S)NC(=O)c1ccc(Cl)cc1)C1CCCCC1	.	2.1	98	.	.
Cc1ccc(N(CC(=O)N/N=C/c2cc(C)n(-c3ccccc3C)c2C)S(C)(=O)=O)cc1	15	4.0	3	-11	-1%

Brought forward from above: two entries, then new ones.
SMILES	Arbovirus inh	RecA intein inh	Mtb bLac sens	YopH PTP inh	Mtb H37Rv	others
CN(C(=S)NC(=O)c1ccc(Cl)cc1)C1CCCCC1	.	2.1	98	.	.
Cc1ccc(N(CC(=O)N/N=C/c2cc(C)n(-c3ccccc3C)c2C)S(C)(=O)=O)cc1	15	4.0	3	-11	-1%
O=C(Nn1c(-c2ccc(Cl)cc2)nc2ccccc2c1=O)c1cccnc1Cl	1	0.9	1	12	-7%
O=C(NCc1ccc(F)cc1)c1cc2c(s1)CS(=O)(=O)C2	.	0.1	3	.	.
CN(C)c1ccc(/C=C2\SC(=S)N(Nc3ncc(C(F)(F)F)cc3Cl)C2=O)cc1	-9	0.9	4	-36	1%
CC(C)N(C(=O)CN1C(=O)C(=O)c2ccccc21)c1ccccc1	-8	-0.8	-2	.	-3%
CC1CCN(C(=O)c2ccc(-c3ccccc3Cl)o2)CC1	.	11	18	.	.
Cc1noc(C)c1Cc1c(Cl)cccc1Cl	-3	-4.5	1	-21	-3%
O=C(Cc1csc(Nc2nc(=S)[nH]c3ccccc23)n1)NCCCN1CCN(c2cccc(Cl)c2)CC1	-7	-1.3	38	.	9%
CN(C(=O)COC(=O)C1CCN(S(=O)(=O)c2cccs2)CC1)C1CCS(=O)(=O)C1 (stereo not given)	3	-7.2	-9	36	-11%
Cc1cccc(NC(=S)NCc2ccc3c(c2)OCO3)c1	-1	-0.2	4	-30	13%
CCO[C@H]1OC(C(N)=O)=C[C@@H](C(C)(C)C)[C@@H]1CCCO	.	-2.4	-7	.	-10%
Cc1cc2nc(SCC(=O)Nc3ccccc3C(=O)O)[nH]c2cc1C	7	.	0	.	8%
O=C(Nc1ccc2c(c1)OCCO2)c1ccc(Cl)cc1	.	1.6	-7	.	.
O=C(CCC1CCCC1)NCCCN1CCOCC1	2	-2.7	7	-27	-12%
COc1ccc2nc(SCC(=O)Nc3ccc4c(c3)CCC4)[nH]c2c1	-6	1.9	96	-21	16µM*
COc1ccccc1NC(=S)N1CCOCC1	-7	-1.3	-9	-29	-1%
CCOC(=O)c1ccc2c(c1)nc(COc1ccc3ccccc3c1)n2CC	13	10	-3	-10	7%
Cc1csc(SC(C)C(=O)NCC2CCCO2)n1 (stereo not given)	.	5.5	1	.	.
CCOP(=O)(OCC)c1nc(-c2cccc3ccccc23)oc1NCc1ccc(OC)cc1	-27	-0.1	-1	.	4%
COc1cc(C)c(Cl)cc1S(=O)(=O)NCCCN1CCOCC1	1	4.2	-4	-31	4%
CC(C)Oc1cccc(C(=O)C2CCCN(Cc3cccn3-c3ccccn3)C2)c1 (stereo not given)	-16	2.4	14	.	8%
O=C(CCCn1c(=O)oc2ccccc21)N1CCN(c2ccc(F)cc2)CC1	.	-3.0	-2	.	4%
CCOC(=O)C(C)n1cnc2c1c(=O)[nH]c(=O)n2C (stereo not given)	-5	3.2	-1	-13	3%
CC(=O)NCCc1ccc(S(=O)(=O)Nc2cccnc2)cc1	11	3.3	-2	-28	-8%
CC12CN3CCN(C1)CC(C)(C3)C2=NN	.	-0.6	-5	.	-7%
COc1ccc(N2CCN(CCc3ccncc3)CC2)cc1	.	-0.7	-1	.	.
CCOc1ccccc1N(C)S(=O)(=O)c1ccc2c(c1)CC(C)N2C(=O)C1CC1 (stereo not given)	.	1.0	-7	.	.
COc1cccc(COC(=O)C2CC(=O)N(Cc3ccco3)C2)c1OC (stereo not given)	.	5.1	1	.	.
COc1cccc(CNC(=O)CSc2nc3ccc(C)cc3[nH]2)c1	.	3.4	-4	.	.
O=S(=O)(c1ccc(F)cc1)n1ccc2cccnc21	-4	3.1	3	-27	-2%
Cc1csc(SCC(=O)Nc2cccc(S(=O)(=O)N3CCOCC3)c2)n1	12	1.0	-8	.	-7%
O=C(Nc1cccc(C(=O)O)c1)/C(=C/c1ccc2c(c1)OCO2)NC(=O)c1cccc(Br)c1	3	3.2	3	.	-4%
COC(=O)C1C2c3ccccc3OC1(C)N=c1s/c(=C/c3cn(C)nc3C)c(=O)n12 (stereo not given)	-5	0.2	5	-34	-4%
Cc1cccc(-c2nc(CS(=O)CC(=O)NC3CCCCC3)c(C)o2)c1 (stereo not given)	.	-0.1	-1	.	.
CCCC(=O)Nc1ccc(S(=O)(=O)N2CCCC2)cc1	-3	0.6	-5	-18	-3%
Cc1[nH]c(C)c(S(=O)(=O)N2CCN(c3ccccc3F)CC2)c1C(=O)N1CCCC1	.	-1.0	5	.	.
Cc1nc(-c2ccc(F)cc2)c(CC(=O)N(C)CC(=O)Nc2ccccc2Cl)s1	.	1.4	0	.	.
CCOC(=O)N=Nc1c(O)n(Cc2ccccc2)c2ccccc12	-6	1.3	-1	.	13%
COc1ccccc1CNC(=O)/C=C/c1ccc(Br)o1	1	-6.4	2	.	-8%
CN(C)CCNC(=O)CCn1nc(-c2ccc(Cl)cc2)ccc1=O	.	-0.4	-3	.	.
O=C(CN1C2CCCC1CC(NC(=O)c1ccco1)C2)Nc1ccccc1C(F)(F)F (stereo not given)	6	1.1	-5	33	-1%
NNC(=O)CC12CC3CC(C1)CC(n1ncnn1)(C3)C2	3	-3.2	-3	-33	7%
COc1ccc2c(c1)C(=O)[C@H](O)[C@@H](c1ccc(OC)c(Br)c1)O2	-9	-1.7	5	-11	-6%
Cc1ccc(NS(=O)(=O)c2ccc(CCC(=O)N3CCCC3)cc2)cc1	-1	-0.7	-1	.	2%
CCN(CC)CCNC(=O)c1ccc(NC(=O)c2ccc(S(=O)(=O)N3CCCCCC3)cc2)cc1	.	-1.6	-7	.	.
C=CCOC(=O)c1[nH]c2c(c1C)C(=O)CC(c1ccco1)C2 (stereo not given)	-14	4.1	-9	4	-5%
CN(C(=O)c1sc2nc(N3CCOCC3)c3c(c2c1N)CCCC3)c1ccccc1	7	0.0	-5	.	4%
COc1ccc(-c2oc3ncn(CCN4CCOCC4)c(=N)c3c2-c2ccc(OC)cc2)cc1	-26	-1.2	91	-15	-4%
Cc1ccccc1C1NC(c2ccccc2C)C([N+](=O)[O-])C(C)(C)C1[N+](=O)[O-] (stereo not given)	.	-0.3	0	.	-8%
CCOC(=O)c1c(C)[nH]c(C)c1S(=O)(=O)NCCN1CCN(c2ccccc2F)CC1	.	-3.1	9	.	.
Cc1cccc(C(=O)NC(=S)Nc2c(C)n(C)n(-c3ccccc3)c2=O)c1	.	-1.0	-2	.	.
Cc1ccc(Cl)cc1NC(=O)C(NS(=O)(=O)c1cccs1)c1ccccc1 (stereo not given)	0	-2.6	2	-23	13%
O=C(COc1ccccc1)Nc1ccccc1N1CCN(c2ccccc2)CC1	-3	7.7	0	-20	-3%
CCOc1ccc(S(=O)(=O)Nc2ccc(S(=O)(=O)N3CCOCC3)cc2)cc1	7	.	-2	-16	-4%
COc1ccc(-c2ccc(SCC(=O)N3CC(=O)Nc4ccccc43)nn2)cc1	.	-1.5	-3	.	.
O=C(Nc1cc(F)cc(F)c1)c1ccc(NCCCN2CCCCCC2)c([N+](=O)[O-])c1	-8	1.5	-10	.	0%
O=C(NNC1CC(=O)N(c2ccc(Br)cc2)C1=O)c1cccnc1 (stereo not given)	0	1.6	-3	.	5%
COc1ccccc1/C=C/C=N/n1c(-c2ccc(Cl)cc2)n[nH]c1=S	.	-1.4	2	.	13%
O=C(Nc1ccon1)c1cccc(C(F)(F)F)c1	-3	4.1	-1	-44	-6%	Arbovirus inh repeat=0
Cc1cc(Cl)c(S(=O)(=O)Nc2ccc3c(c2)OCCO3)cc1OCC(N)=O	2	-3.0	-13	1	0%
Cc1nn(C)c(C)c1CN(C)C(=O)c1cc2nc(-c3ccco3)cc(C(F)(F)F)n2n1	10	-18	-7	11	-10%

Additional structures follow:
SMILES	Arbovirus inh	RecA intein inh	Mtb bLac sens	YopH PTP inh	Mtb H37Rv	others
COc1ccc(-c2cc(N)n(S(=O)(=O)c3c(F)c(F)c(F)c(F)c3F)n2)cc1OC	-36	97*	24	-41	0%
COc1ccc(CNC(=O)C(CCSC)NS(=O)(=O)c2ccccc2F)cc1 (stereo not given)	-1	-0.1	1	.	5%
CSc1nnc2c(n1)c(C)nn2-c1ccc(C)cc1	-1	1.4	8	-2	3%
COc1ccc(C(=O)Nn2c(C)nc3ccccc3c2=O)cc1OC	.	0.6	-6	.	.
Cn1c(=O)c(C(N)=S)cn(-c2ccccc2)c1=O	.	0.4	0	.	.
CCOC(=O)c1cc(-c2nnc(SCC(=O)Nc3ccc(F)cc3)o2)c(C)nc1C	5	-1.8	6	-32	6%
COc1ccccc1N1CCN(C(=O)CSc2ccc3c(C)cc(C)nc3n2)CC1	14	1.2	-1	13	-4%
COC(=O)c1cc(NC(=O)CN2C(=O)CSC2=O)ccc1Cl	7	.	-8	-6	-9%
CN1CCN(C(=O)C2=C[C@H](c3ccc(C(F)(F)F)cc3)C[C@H](OCCCCO)O2)CC1	.	-2.8	-12	.	-5%
COc1ccc(CCNC2CCN(C)CC2)cc1OC	0	-1.3	-7	-15	5%
Cc1cccnc1NC(=S)Nc1ncccc1C	.	-0.1	-4	.	-8%
Clc1cc(Br)ccc1OCCN1CCOCC1	2	-0.1	-5	-16	-2%
CC12CC3CC(C)(C1)CC(NCc1ccncc1)(C3)C2	-2	-3.1	-2	.	-3%
CCOc1ccc(NC(=O)COc2cccc3c2CCN(Cc2cccnc2)C3=O)cc1	.	3.3	2	.	.
CCOC(=O)C1(CCc2ccccc2)CCN(C2Cc3ccccc3C2)CC1	6	3.1	5	.	1%

Sorted by formula weight (rising): part of the list above.
SMILES	Arbovirus inh	RecA intein inh	Mtb bLac sens	YopH PTP inh	Mtb H37Rv	others
CC12CC3CC(C)(C1)CC(NCc1ccncc1)(C3)C2	-2	-3.1	-2	.	-3%
Clc1cc(Br)ccc1OCCN1CCOCC1	2	-0.1	-5	-16	-2%
CCOC(=O)C1(CCc2ccccc2)CCN(C2Cc3ccccc3C2)CC1	6	3.1	5	.	1%
COc1ccc(CNC(=O)C(CCSC)NS(=O)(=O)c2ccccc2F)cc1 (stereo not given)	-1	-0.1	1	.	5%
CCOC(=O)c1cc(-c2nnc(SCC(=O)Nc3ccc(F)cc3)o2)c(C)nc1C	5	-1.8	6	-32	6%

Further entries:
SMILES	Arbovirus inh	RecA intein inh	Mtb bLac sens	YopH PTP inh	Mtb H37Rv	others
COc1cccc(CNC(=O)c2ccc3c(c2)N(C)CCS3)c1OC	.	-5.3	-1	.	.
Clc1ccc(C2Nc3cccc4cccc(c34)N2)cc1Cl	.	9.1	-2	.	.
CC(=O)NC(Cc1ccc(F)cc1)C(=O)NC1CCN(C(=O)Nc2cccc(C)c2)CC1 (stereo not given)	.	0.7	-3	.	.
CCOc1ccccc1N=NC1C(=O)N(C(N)=S)N=C1C (stereo not given)	.	-0.9	99	.	.
Cc1ccc(-c2noc(C3CCCN(C(=O)c4ccccc4)C3)n2)o1 (stereo not given)	4	5.7	1	-10	5%

Screening data as filed in PubChem BioAssay.

An excerpt, so the mix of outcomes need not match the whole.
